# Screening results from PubChem.
# CSC inhib – cancer stem cell inhibition | inhibition, % at 7.5 µM | AID 2717 | actives 1.1% (n = 300,000) | cancer stem cell-like cells viability, luminescence;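 active means mean at 75% or more and at least half the replicates too; inconclusive means mean and replicates disagree; tested in HMLE shEcad cells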;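 further: 0% = median of negative and 100% = median of positive control wells; the first replicate is given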
# MT1-MMP act inh – MT1-MMP (human) activation inhibition | GFP/RFP ratio change, % at 20 µM | actives 0.061% (n = 360,000) | AID 651647 | P50281 | HT1080 RFP-PRO-GFP cells, GFP/RFP ratio fluorescence, overnight; percent of plate control window, DMSO zero;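 active means GFP/RFP ratio change of at least 30% with cell ATP level not reduced by more than half and red fluorescence within 50% of control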; further: strong numbers were not always called active
#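 Material – HT1080 RFP-PRO-GFP cells · Control set – DMSO wells and RFP-L50D-GFP cells · Incubation – overnight cell settling, then overnight compound exposure, 37 °C, 5% CO2 · Compound dosing – single-point 20 µM compound, 1% DMSO · Read-out – GFP/RFP fluorescence ratio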
# Rce1 inhib – yeast Ras-converting enzyme inhibition | actives 0.27% (n = 290,000) | Q03530 | yeast membranes, quenched prenylated peptide cleavage fluorescence | calls only;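 active means fall in fluorescence gain of 50% or more versus controls, with final raw signal at or below 3038400; inconclusive means same 50% fall but final raw signal above 3038400; inactive means fall in fluorescence gain under 50%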;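 further: plate controls were neutral control wells for no effect and wells lacking membranes for full effect; tested at 10 µM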
# Target sequence (Q03530 whole entry, looked up): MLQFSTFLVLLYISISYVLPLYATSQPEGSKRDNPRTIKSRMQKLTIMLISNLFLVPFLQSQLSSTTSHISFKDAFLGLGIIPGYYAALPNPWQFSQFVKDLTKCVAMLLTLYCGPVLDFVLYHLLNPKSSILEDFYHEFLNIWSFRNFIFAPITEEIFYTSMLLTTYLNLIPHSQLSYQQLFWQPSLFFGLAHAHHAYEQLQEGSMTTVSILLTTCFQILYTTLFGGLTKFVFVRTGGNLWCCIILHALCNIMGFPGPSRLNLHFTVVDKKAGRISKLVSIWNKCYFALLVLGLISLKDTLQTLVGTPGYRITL
# UUG fidelity – modulators of start codon recognition fidelity in yeast | S. cerevisiae UUG-firefly luciferase reporter, luminescence/redox ratio | activity score, % at 18.7 µM | actives 0.13% (n = 350,000) | AID 602363;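 active means replicate mean at a twofold rise or more, about +100% in these data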;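 further: firefly luciferase made from a UUG start codon reports start codon fidelity; reporter light over untreated wells divided by growth signal over untreated wells; some hits fall short of that in this replicate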
# PABP polyA inh – blocks human PABP binding to poly(A) RNA. actives 1% (n = 290,000). P11940. inhibition, % at 35 µM. fluorescence polarization. AID 2014;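 active means 50% or more with normal probe brightness, or confirmed in later tests; inconclusive means above 50% with abnormal brightness, or retests that disagree; inactive means below 50% or failed in later tests; about a fifth of its hits are not listed in these tables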;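 further: calls also rest on retests at 20 µM and on dose response follow-up; controls were probe without protein and protein plus probe with vehicle; some compounds called inactive have numbers as strong as hits; many hits fall short of the cut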
# eIF4H FP inh – inhibitors of RNA binding by human eIF4H. Q15056. eIF4H fluorescence polarization binding assay. inhibition, % at 35 µM. actives 0.94% (n = 290,000);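 active means 50% or more with normal probe brightness, or confirmed in later tests; inconclusive means above 50% with abnormal brightness, or retests that disagree; inactive means below 50% or failed in later tests; about a fifth of its hits are not listed in these tables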;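 further: calls also rest on retests at 20 µM and on dose response follow-up; 0% = protein and probe with vehicle and 100% = probe without protein; strong numbers were not always called active; many hits fall short of the cut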
# Env fusion inh – HIV envelope-mediated fusion inhibition. HeLa-JRFL Env/CEM21 cell fusion, luciferase. inhibition, % at 12.3 µM. actives 1.1% (n = 360,000);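 active means mean replicate inhibition score of at least 50 and every replicate individually at or above 50; inconclusive means only one of the two criteria met; inactive means mean below 50 and not all replicates reaching 50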;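 further: 0% = plate neutral controls and 100% = maraviroc near 300 nM; one replicate is shown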
# eIF4H FP inh retest – also measured in eIF4H FP inh; calls as there; inhibition, %; compound at 20 µM; confirmation average;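 mean of two retest wells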
# PABP polyA inh retest – also measured in PABP polyA inh; calls as there; inhibition, %; compound at 20 µM; confirmation repeats;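 mean of two retest wells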
# MT1-MMP act inh RFP – recorded beside MT1-MMP act inh, whose call it bears; RFP signal change, %; measured here: RFP expression control read;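 0 = vehicle wells; hits needed this value within 50% of zero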
# The depositor's hits bear a star; i = inactive; ? = inconclusive; . = no result given. The list is partial; count on the stated rates, not on these rows.
SMILES,CSC inhib,MT1-MMP act inh,MT1-MMP act inh RFP,Rce1 inhib,UUG fidelity,PABP polyA inh,eIF4H FP inh,Env fusion inh,others
O=C(CSc1nnnn1-c1ccccc1)NCc1cccs1,-9,-2,2,i,3,-4,-2,-105,
COC(=O)c1cc2c(ccn2-c2ccc(F)cc2)n1CC(=O)N1CCN(C(=O)c2ccco2)CC1,.,19,-5,.,-3,-2,2,.,
O=C(Cc1csc(NC(=O)c2ccc(F)cc2)n1)NO,8,5,1,i,-22,-4,-10,9,
CC(=O)N1CCN(c2ccc(NC(=O)/C=C/c3ccccc3)cc2)CC1,-38,4,5,i,1,1,-9,19,
O=C(CC(c1ccccc1)c1ccco1)Nc1nccs1 (centres undefined),7,0,6,i,.,-5,0,.,
COC(=O)CNC(=O)C(C)(C)Oc1ccc(Cl)cc1,21,-3,2,i,-17,-10,-10,-15,
COc1ccc(C2N(C(=O)N3CCOCC3)CCN2S(=O)(=O)c2ccc(C)cc2)cc1 (centres undefined),-1,-1,0,i,-13,4,-3,.,
O=C(NCc1ccc2c(c1)OCO2)C1CC(=O)N(CCc2ccc(Cl)cc2)C1 (centres undefined),-11,-1,-1,i,17,4,-8,-23,
OC(CNCCc1ccc(Cl)cc1)COc1ccc2ccccc2c1 (centres undefined),.,-2,0,.,-9,-12,-6,-1,
CCC1(C)Cc2c(sc3nnn(Cc4ccccc4Cl)c(=O)c23)CO1 (centres undefined),.,-11,-11,i,9,-13,-11,35,
COc1ccc(CC(=O)N/N=C/C=C/c2ccc3c(c2)OCO3)cc1OC,-7,3,-2,i,1,-2,-8,5,
CC(C)C(=O)Nc1cccc(NC(=S)NC(=O)c2ccc(Cl)cc2)c1,-4,-4,-20,i,1,-6,-5,?,
COc1cccc(CNc2nc(NC(C)C)nc3ccsc23)c1OC,.,0,-9,.,-2,.,.,25,
O=c1[nH]nc(Cc2ccc3ccccc3n2)c2ccccc12,.,-1,-2,i,-6,12,-4,.,
CCN(CC)CCn1c(N)c(S(=O)(=O)c2ccccc2)c2nc3ccccc3nc21,7,-3,0,i,-7,-4,-1,9,
Cc1ccc2nc(CCl)[n+]([O-])c(-c3ccccc3)c2c1,-5,4,6,.,-14,-1,-2,5,
Cc1nnc(SCC(=O)NC2(C#N)CCCCC2)n1N,.,0,7,.,-2,.,.,18,
CC1Cc2ccccc2N1C(=O)CCn1c(=O)sc2ccccc21 (centres undefined),3,-1,2,i,-8,-7,2,.,
CC1CCCN(C(=O)CCNS(=O)(=O)c2ccc3c(c2)oc(=O)n3C)C1 (centres undefined),-20,-2,2,i,-12,-2,-2,-6,
O=C(NCCCN1CCN(c2ccccc2F)CC1)C1CCCN(S(=O)(=O)c2cnc[nH]2)C1 (centres undefined),.,1,9,i,-17,2,1,-4,
Cc1coc2cc3oc(=O)c4c(c3cc12)CCC4,-4,.,.,i,.,7,6,.,
CN(CC(=O)Nc1ccc(F)c(F)c1F)C(=O)c1ccc(-n2cncn2)c([N+](=O)[O-])c1,-3,-2,1,i,.,.,.,.,
Cc1cc(=O)n2[nH]c(N)c(N=Nc3ccccc3F)c2n1,12,3,-3,i,.,-6,1,-6,
COC(=O)c1ccc(Cn2nnc3c(=O)[nH]c(C4CCCN(S(=O)(=O)c5cccc(Cl)c5)C4)nc32)cc1 (centres undefined),11,-10,-5,i,-7,-8,-9,-2,
CC(C)CC(=O)N1CCN(S(=O)(=O)c2ccc(Cl)cc2)CC1,-9,0,2,i,.,-8,-7,7,
CCOC(=O)C(NC(=O)c1ccccc1)=C(C)C,-8,0,5,i,-12,-9,-3,.,
CCN(CC)C(=O)CN1C(=O)NC2(CCc3ccccc3C2)C1=O (centres undefined),-4,0,4,i,.,5,-2,-14,
CCCn1c2ccc(C)cc2c2nnc(SCCN3CCOCC3)nc21,10,-1,-5,i,-13,0,-3,13,
c1ccc(-c2cc(-c3ccccc3)on2)cc1,-9,1,-1,i,-11,2,-8,-141,
CN(C)C(=O)CSc1nc2ccccc2n1Cc1ccccc1,-12,-6,0,i,.,13,0,-47,
Cn1c(NC(=O)C[n+]2cc(-c3ccccc3)n3c2CCC3)cc(=O)n(C)c1=O,4,-4,0,i,1,-9,3,4,
COc1cc(CNCc2ccncc2)cc(OC)c1OC,3,-2,1,i,-28,21,3,-56,
Cn1nccc1C(=O)OCC(=O)Nc1nc(-c2ccccc2)cs1,-6,4,-3,i,-10,4,-2,-15,
COc1cc(NC(=O)c2ccccc2F)ccc1NC(=O)c1ccccc1Cl,2,1,4,i,.,-6,-12,-48,
Cc1ccccc1-c1ccc(/C=C2/SC(N3CCOCC3)=NC2=O)o1,26,-6,-2,i,-8,4,-10,6,
COc1cc2sc3ccc(C#Cc4ccccn4)cc3c(=O)c2cc1OC,-22,2,-2,i,-9,.,.,56*,
CCCn1c(=O)c(C(=O)Nc2c(C)n(C)n(-c3ccccc3)c2=O)c(O)c2ccccc21,22,10,4,.,.,1,0,-8,
O=C(c1ccncc1)N1CCN(C2CCCCC2)CC1,5,1,2,i,-10,7,3,-18,
O=C(Nc1ccc2oc(=O)ccc2c1)c1cccnc1Cl,-4,1,2,i,-1,-2,-9,.,
CC(C)(C)c1csc(NC(=O)c2cccs2)n1,-9,-49,-41,i,-9,1,-2,.,

# Of the compounds above, 4 have a furan ring, fused or not.
SMILES,CSC inhib,MT1-MMP act inh,MT1-MMP act inh RFP,Rce1 inhib,UUG fidelity,PABP polyA inh,eIF4H FP inh,Env fusion inh,others
COC(=O)c1cc2c(ccn2-c2ccc(F)cc2)n1CC(=O)N1CCN(C(=O)c2ccco2)CC1,.,19,-5,.,-3,-2,2,.,
O=C(CC(c1ccccc1)c1ccco1)Nc1nccs1 (centres undefined),7,0,6,i,.,-5,0,.,
Cc1coc2cc3oc(=O)c4c(c3cc12)CCC4,-4,.,.,i,.,7,6,.,
Cc1ccccc1-c1ccc(/C=C2/SC(N3CCOCC3)=NC2=O)o1,26,-6,-2,i,-8,4,-10,6,

# Continued:
SMILES,CSC inhib,MT1-MMP act inh,MT1-MMP act inh RFP,Rce1 inhib,UUG fidelity,PABP polyA inh,eIF4H FP inh,Env fusion inh,others
CCOC(=O)/C=C1\CC(=O)Nc2nonc2N1,-6,-5,2,i,-24,18,15,-5,
O=C1C2CC=CCC2C(=O)N1c1n[nH]c(Cc2ccccc2)n1 (centres undefined),-15,-1,4,i,-28,4,-10,.,
CC1(C(=O)Nc2ccc3ccccc3c2)CCC(=O)N1CCCn1ccnc1 (centres undefined),.,1,3,.,-12,.,.,18,
Cn1cccc1C(C#N)c1ncc(C(F)(F)F)cc1Cl (centres undefined),-9,-2,-3,i,-18,6,33,-3,
O=C(Nc1ccc(N2CCOCC2)nc1N1CCOCC1)c1cccc(C(F)(F)F)c1,-1,1,1,i,.,4,1,4,
CCOC(=O)c1[nH]c2ccc(OCC)cc2c1NC(=O)CN1CCCC(C)C1 (centres undefined),-2,3,-1,i,-3,-4,-3,.,
COc1ccc(-c2nnn(CC(=O)N(Cc3ccccc3Cl)C(C(=O)NCC3CCCO3)c3ccco3)n2)cc1OC (centres undefined),-8,-5,-11,i,1,-4,-6,-79,
COc1ccc(Cc2nc(-c3ccc(NC(=O)c4cccnc4)cc3)no2)cc1,13,-4,-1,i,.,-4,5,.,
COc1ccc(-n2cnc3c(sc4nc(N5CCOCC5)c5c(c43)CCCC5)c2=O)cc1,.,-9,-14,i,-12,-6,-3,-16,
CC1(C)Cc2ccccc2C(NNC(=O)c2ccccn2)=N1,-10,0,3,i,-13,4,-10,.,
CC(=NNC(=O)Cn1ccc(C(F)(F)F)n1)c1ccc(-n2ccnc2)cc1,45,6,-1,.,.,.,.,-7,
O=C1CCCC2=C1C(c1ccc(Cl)cc1)C1C(=O)c3ccccc3C1=N2 (centres undefined),21,7,-11,i,0,4,8,59*,
Cc1cc(C(=O)CSc2nnc(N)s2)c(C)n1Cc1cccs1,30,7,3,i,.,2.7*,77,-39,eIF4H FP inh retest=25;PABP polyA inh retest=67*
CCCCOC(=O)c1ccc(NC(C)=O)cc1,8,-1,2,i,-5,0,-2,.,
NS(=O)(=O)c1ccc(CNC(=O)c2scc3c2CCCC3)cc1,-23,1,0,i,17,-10,5,0,
COc1ccc(CSCCNC(=S)Nc2ccccc2)cc1Cl,15,7,-4,i,.,9,5,12,
CCOc1ccc(-c2n[nH]c(C)c2-c2ccccc2OC)c(O)c1,-11,4,1,i,-7,2,-8,-88,
Cc1ccc(C)c(S(=O)(=O)N2CCN(C(=O)c3cc(S(=O)(=O)NCc4ccccc4)ccc3C)CC2)c1,.,-3,-5,i,-16,0,-2,27,
Cc1ccc(C(=O)Nc2ccc(S(=O)(=O)NC3=NCCCCC3)cc2)cc1S(=O)(=O)N1CCOCC1,-23,7,-7,.,0,.,.,.,
CCOC(=O)C1=CC[C@@H](c2ccccc2)N(S(=O)(=O)c2ccc(C)cc2)[C@H]1C=C(C)C,.,-8,-22,.,-14,.,.,40,
Cc1noc2ncnc(N3CCCC3)c12,9,-1,1,i,-17,-6,-2,9,
O=C1C(c2ccccc2)SC(=Nc2ccccc2)N1S(=O)(=O)c1ccccc1 (centres undefined),-14,1,3,i,-50,12,9,.,
CCOC(=O)c1ccc(NC(=O)NNS(=O)(=O)c2cc(OC)ccc2OC)cc1,-3,0,4,i,1,-2,-9,-7,
O=c1cc(CN2CCN(S(=O)(=O)c3ccccc3)CC2)nc2sccn12,-9,-2,-1,i,.,-4,5,1,
COC(=O)c1c(NC(=O)CC2SC(N)=NC2=O)sc(C)c1C (centres undefined),-16,2,-1,i,.,-5,-3,-47,
CCOc1ccccc1Nc1nc(N)nc(Cl)c1CC,.,4,-2,.,-11,.,.,26,
O=C(Nc1ccc2c(c1)OCO2)c1ccccn1,.,-4,1,.,-30,.,.,-29,
Cc1cc(C(=O)N/N=C/c2ccc(OC(=O)c3ccccc3Br)cc2)n[nH]1,-4,1,2,i,.,-11,-9,-5,
O=C(NNC(=S)NCC1CCCO1)c1cc(Br)ccc1Cl (centres undefined),-23,-5,-1,i,-19,0,0,-7,
COc1ccc(CC(=O)n2[nH]c(=O)ccc2=O)cc1OC,-8,-2,2,i,-13,-8,14,-9,
COc1cccc(OC)c1C(=O)NC(=S)NCc1cccnc1,-22,2,0,i,-44,2,11,4,
CC(C)(CNC(=O)/C=C/c1ccc(F)cc1)CNC(=O)/C=C/c1ccc(F)cc1,20,15,-3,i,.,22,3,.,
COC(=O)c1ccc(COC(=O)CCC(=O)c2cccs2)cc1,-5,2,6,i,.,11,0,-12,
S=c1[nH]nc(-c2ccccc2Br)n1Cc1ccccc1,33,1,-2,i,-27,14,-20,-4,
O=C(NCc1ccc(Cl)cc1)C1CCN(C(=O)Cc2ccccc2)CC1,-12,3,1,i,-5,-11,-8,.,
O=C(CC1N=C(Cc2ccccc2)NNC1=O)N/N=C/c1ccc([N+](=O)[O-])cc1 (centres undefined),3,0,-5,i,-12,-4,3,-14,
O=C(Nc1ccc(Cl)c(Cl)c1)Nc1ccccc1O,93*,9,-4,.,-23,10,30,-48,
COc1ccc(CN2CCC2(C)C(=O)NCCc2c[nH]c3ccccc23)c2ccccc12 (centres undefined),.,-2,1,.,2,.,.,-7,
O=C(CBr)Nc1c2c(nn1-c1ccccc1)CSC2,-11,-2,1,i,-9,12,-17,1,
O=C(C[n+]1ccc(/C=N/O)cc1)N(Cc1ccccc1)Cc1ccccc1,-13,2,-2,i,.,-3,-5,-27,
